gsp antag: antagonizes gsp, the McCune-Albright syndrome mutation; gsp-mutant cells, cAMP HTRF, 30 min; control for the full effect not named in the record; Potency, µM (highest dose often 76.9 µM), for the others: at the top dose activity change, negative = inhibition, hits mostly inhibitors; 340,000 tested, 0.4% active; AID 624288; active = falling curve of any shape with a large fitted effect; inconclusive = falling curve, mostly with a smaller effect; inactive = flat or rising curve; cell line not stated here;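 note: intracellular cAMP measured with PDE inhibitor Ro 20-1724 present during compound exposure; potency is the fitted concentration of half-maximal effect; % is set by controls: 0 for no effect and ±100 for the full control effect; nearly all actives have a fitted effect of over 65% in size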
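Cells in G418 medium, seeded 16-24 h, 37C; buffer exchange to DPBS + 1 mM CaCl2, 0.5 mM MgCl2, 0.05% BSA; cpds in DMSO + […] (300 uM stock), 30 min 37C; HTRF cAMP detection.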
PINK1 expr mod: PINK1 expression modulation | Potency, µM (series often up to 76.6 µM), without a hit: at the highest dose activation (PINK1 increase), actives largely listed as activators | 410,000 tested, 0.2% active | PINK1 immunofluorescence, high-content cytometry, 24 h; active = well fitted activation curve with a large enough effect; inconclusive = small, poorly fitted or top-dose-only effect; inactive = flat fitted curve, though single readings scatter; cell line not stated here;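 note: potency is the fitted concentration of half-maximal effect; % of control where 0% means no effect; nearly all actives have a fitted effect of over 65% in size; a mitochondrial uncoupler was the plate control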
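Stable cell line treated 24 h with compounds at 5 concentrations (CCCP controls), then fixed and immunostained for PINK1 plus nuclear and cell stains; PINK1 immunofluorescence quantified by laser-scanning microplate cytometry.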
Menin-MLL FL inh: menin-MLL binding inhibition, fluorescein peptide | Fluorescence polarization, fluorescein-MLL peptide displacement from menin | FP activity change, % at 61.4 µM | 290,000 tested, under 10 active | AID 1766; inconclusive = falling polarisation curve, or a change in total fluorescence; inactive = total fluorescence flat and polarisation flat or rising; no compound was filed as active; the % refers to the polarisation; negative = inhibition;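 note: % of control where 0% means no effect; inhibitors lower the polarisation; unlabelled MLL peptide was the positive control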
D2 ag: agonists of human D2 dopamine receptor (beta-arrestin). 360,000 tested, 0.084% active. DiscoveRx PathHunter D2 beta-arrestin, luminescence, 90 min; 100% = 57 uM dopamine signal. P14416. AID 624465. activation, % (test concentration not listed); in the data active = activation above about 40%; inconclusive = about 15% to 40%; inactive = below about 15%; note: compound concentration not given in the record; the text of the record calls up to 30% inactive
Target sequence (P14416 whole entry, looked up): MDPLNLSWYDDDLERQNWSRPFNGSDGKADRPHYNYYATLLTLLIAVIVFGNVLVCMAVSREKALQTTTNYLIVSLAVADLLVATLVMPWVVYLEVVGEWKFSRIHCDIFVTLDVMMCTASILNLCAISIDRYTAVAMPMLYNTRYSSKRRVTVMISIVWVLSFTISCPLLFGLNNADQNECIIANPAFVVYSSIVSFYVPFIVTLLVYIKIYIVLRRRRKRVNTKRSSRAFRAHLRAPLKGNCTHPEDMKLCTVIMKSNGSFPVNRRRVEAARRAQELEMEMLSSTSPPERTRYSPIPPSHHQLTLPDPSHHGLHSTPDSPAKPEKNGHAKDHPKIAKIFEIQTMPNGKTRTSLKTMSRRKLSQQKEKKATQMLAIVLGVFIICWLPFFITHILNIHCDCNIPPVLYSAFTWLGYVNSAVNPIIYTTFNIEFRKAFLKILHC
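Agonist mode: compounds alone added to overnight-plated D2 PathHunter cells for 90 min at 37 C, with 57 uM final dopamine (EC100) defining full response. Beta-arrestin recruitment detected by chemiluminescent reagent, read after 1 h at ambient temperature.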
Sfp PPTase inh: inhibitors of Bacillus subtilis Sfp phosphopantetheinyl transferase; Potency, µM, inactives show max response, negative = inhibition, actives largely listed as inhibitors; Biochemical Sfp PPTase activity, qHTS; AID 1490; Q9F4F7; 310,000 tested, 3.5% active; active = well fitted inhibition curve with a large enough effect; inconclusive = small, poorly fitted or top-dose-only effect, or another doubt; inactive = no such curve, though single readings can be large or run the other way;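 note: the enzyme is Sfp with the accession as filed and its product quenches rhodamine fluorescence; potency is the fitted concentration of half-maximal effect; 0% = enzyme reaction without inhibitor and -100% = no enzyme wells; top concentration of the series not given in the record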
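Sfp 15 nM + cpd, 15 min RT; start w/ rhodamine-CoA 5 uM, BHQ-2-YbbR 12.5 uM (final); 50 mM Hepes pH 7.6, 10 mM MgCl2, 0.01% NP-40, 0.01% BSA; read 525/598 nm at 0 and 30 min.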
ClpP mod: qHTS Assay for Activators of ClpP; Potency, µM (doses to about 57.5 µM), for inactives: at the highest dose activity change, negative = active; AID 651965, 2013; ATP-dependent Clp protease proteolytic subunit (Bacillus subtilis (strain 168)), P80244; purified B. subtilis ClpP, FRET peptide cleavage, 20 min; 340,000 tested, 1.9% active; active = well fitted falling curve with a large enough effect; inconclusive = small, poorly fitted or top-dose-only effect; inactive = no such curve, though single readings can be large or run the other way; note: potency is the fitted concentration of half-maximal effect; the source files actives as falling curves though it sought activators and does not explain the sign; nearly all actives have a fitted effect of over 65% in size; many hits overshoot -100%
Target sequence (P80244 whole entry, looked up): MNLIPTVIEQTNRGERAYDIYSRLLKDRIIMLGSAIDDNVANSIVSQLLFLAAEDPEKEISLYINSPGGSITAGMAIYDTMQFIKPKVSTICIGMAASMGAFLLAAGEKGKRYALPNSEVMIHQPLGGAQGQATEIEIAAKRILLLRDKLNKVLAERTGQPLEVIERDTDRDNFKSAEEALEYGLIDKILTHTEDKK
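ClpP 10 microg/mL final, pH 8 Tris/KCl buffer with BSA, glycerol, Tween-20; compound pinned in; FRET-FV substrate; RT 20 min; Ex320/Em430; ΔFRET vs ADEP 5.8 microM, DMSO, no enzyme.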
gsp ag: gsp mutant agonism | Potency, µM (top dose mostly 76.9 µM), without a hit: top-dose activation (cAMP increase), hits mostly activators | gsp mutant cells, cAMP HTRF, 30 min; control for the full effect not named in the record | 340,000 tested, 0.13% active; active = well fitted activation curve with a large enough effect; inconclusive = small, poorly fitted or top-dose-only effect, or another doubt; inactive = no such curve, though single readings can be large or run the other way; cell line not stated here;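 note: phosphodiesterase inhibitor Ro 20-1724 added with compounds to block cAMP breakdown; potency is the fitted concentration of half-maximal effect; nearly all actives have a fitted effect of over 60% in size; about a fifth of the inactives were tested at one dose only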
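Cells in DMEM/10% FBS with G418 were pretreated with compounds in DMSO plus […] (300 uM stock) for 30 min at 37C. cAMP was measured by HTRF (cAMP-d2 plus anti-cAMP antibody-K) after 30 min at room temperature.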
Starred values were filed as active, the others as inactive; ? = inconclusive; . = no result given; [ ] = dose if it differs, or a comment.

SMILES | gsp antag | PINK1 expr mod | Menin-MLL FL inh | D2 ag | Sfp PPTase inh | ClpP mod | gsp ag
O=[N+]([O-])c1ccc(N2CCN(S(=O)(=O)Cc3ccccc3)CC2)cc1N1CCOCC1 | ? | -1.4% | 4.4 | -2.6 | 1% | -0.5% | -47%[inhibitor]
CC(C)C(OC(=O)c1nsc(Cl)c1Cl)C(=O)NCC1CCCO1 (configuration not stated) | -3% | 0.6% | 3.5 | -6.1 | 15% | 1.1% | ?
Cc1nn2c(N)c(C#N)cnc2c1-c1ccccc1 | 15% | 0.5% | 0.8 | 0.6 | 16% | -16% | 1%
CCC(c1nnnn1Cc1ccc(OC)cc1)N1CCN(c2ccc(OC)cc2)CC1 (configuration not stated) | -15% | -0.7% | 1.7 | -1.4 | ? | . | 5%[15.4 µM]
COc1ccc(-n2nnnc2SCC(=O)NCCc2ccc(OC)c(OC)c2)cc1 | -17% | . | -0.5 | 0.6 | 7% | -1.9% | -1%
NC(=O)c1sc2nc3c(c(-c4cccnc4)c2c1N)CCC3 | -4% | -5.7%[38.3 µM] | 3.5 | -0.9 | -2% | 0.5% | 9%
Cc1ccc(S(=O)(=O)N(C)CC(=O)Nc2nc3ccccc3s2)cc1 | ? | 1.6% | 1.6 | 0.0 | 10% | -2.6% | 2%
COCCNC(=S)N1CCC(C(=O)c2ccc(C)cc2)CC1 | -6% | 0.3% | 0.6 | -0.9 | 8% | -1.2% | 26%
CCOC(=O)C1(CCc2ccccc2)CCN(Cc2cccc3nccnc23)CC1 | -8% | ? | 3.7 | -4.3 | 16% | -2.5% | 8%
COC(=O)c1cccc(NC(=O)CN(c2ccc3c(c2)OCO3)S(C)(=O)=O)c1C | 19% | -0.2% | 0.9 | -2.4 | -12% | -1.2% | -23%
CCOC(=O)c1c(NC(=O)Cc2ccccc2)sc2c1CCN(C)C2 | 21% | 0.4% | -1.0 | -5.4 | 1% | -4.1% | -30%[inhibitor]
Cc1[nH]c2ccccc2c1C(c1ccccn1)N1CCC(C)CC1 (configuration not stated) | 2%[15.4 µM] | 3.7% | 0.2 | -2.4 | 0% | -0.7% | -22%
Cc1ccc(C)c(C(=O)CN2C(=O)C(=O)N(C3CCCC3)C2=O)c1 | -6% | 0.0% | . | 0.1 | . | -0.8% | 2%
CCc1ccc(N2CC(C(=O)Nc3ccc4c(c3)OCO4)CC2=O)cc1 (configuration not stated) | -2% | 3.5% | . | 1.8 | . | 1.2% | 20%
CN(c1ccc(OCC(=O)Nc2ccc3[nH]c(=O)[nH]c3c2)cc1)S(=O)(=O)c1ccc(Cl)cc1 | 0% | 1.8% | 6.0 | 0.0 | 6% | -3.0% | ?
CC(=O)NS(=O)(=O)c1ccc(NC(=O)c2ccc(Cl)cc2[N+](=O)[O-])cc1 | 8% | -1.0% | 1.1 | 2.2 | 5% | . | -33%
COc1cc(CNC[C@H]2O[C@@H](n3cnc(C(N)=O)n3)[C@H](O)[C@@H]2O)ccc1OCc1cccc(Cl)c1 | 8% | 0.0% | . | 1.3 | . | -2.2% | .
CSc1nsc(/C=C/Nc2ccc(F)cc2)c1C#N | -8% | 0.4% | ? | -2.4 | ? | -0.2% | 12%
Cc1cn([C@H]2C[C@H](O)[C@@H](CNC(=O)[C@@H]3C[C@H](F)CN3)O2)c(=O)[nH]c1=O | . | 1.6% | . | -6.7 | . | 0.3% | -58%[inhibitor]
Cc1cc(C)cc(NC(=O)c2ccc(Cn3nc(C)c(Cl)c3C)o2)c1 | 0% | -4.5% | 0.5 | -3.3 | -4% | -0.4% | -20%
O=C(NCCNC(=O)c1ccc(Cl)cc1Cl)c1ccccn1 | 9% | -2.3% | -0.9 | -1.2 | 4% | . | 35%
O=c1[nH]nc(SCc2ccccc2)n1C1CC2C=CC1C2 (configuration not stated) | 24% | 3.4% | -2.5 | -2.5 | 1% | . | -2%[15.4 µM]
Cc1cc(OCc2nn[nH]n2)c2c(C)c(Cc3ccccc3)c(=O)oc2c1 | -5% | -1.1% | 1.3 | -3.5 | 11% | 32µM* | -5%
CCCN(Cc1cc(=O)[nH]c2ccccc12)C(=O)CC | 8% | 0.1% | 0.0 | -3.2 | 21% | -15% | -3%
Cc1ccc(OCCC(=O)Nc2ccc(C)c(F)c2)cc1 | -12% | 3.7% | -1.0 | -0.8 | 1% | 2.0% | 20%
CCOC(=O)c1ccc(NC(=O)CCS(=O)(=O)Cc2ccccc2)cc1 | 9% | 2.2% | 0.5 | 3.3 | 16% | 64% | -1%
COc1ccc(C(=O)COC(=O)CN2C(=O)c3ccccc3C2=O)c(OC)c1 | 7% | 3.4% | . | -1.8 | 0% | -6.2% | -7%[15.4 µM]
CCN(CC)Cc1cc(CC(C(N)=O)C(N)=O)ccc1OC | 14% | -1.2% | -1.6 | 0.7 | 13% | -1.3% | 10%
COc1ccc(CNC(=O)CSc2nc(C)cs2)cc1 | 8% | -0.1% | 3.8 | 2.6 | 18% | . | -1%[15.4 µM]
Cc1nc2cc(NC(=O)c3ccc(Br)s3)ccc2s1 | ? | 14% | . | -0.8 | 2% | -25% | 17%

Full records, looked up by structure. Values in the order: gsp antag	PINK1 expr mod	Menin-MLL FL inh	D2 ag	Sfp PPTase inh	ClpP mod	gsp ag
`COc1ccc(C(=O)COC(=O)CN2C(=O)c3ccccc3C2=O)c(OC)c1` as listed: 7%	3.4%	.	-1.8	0%	-6.2%	-7%[15.4 µM]
`Cc1ccc(OCCC(=O)Nc2ccc(C)c(F)c2)cc1` as listed: -12%	3.7%	-1.0	-0.8	1%	2.0%	20%

Remaining list, next part.
SMILES | gsp antag | PINK1 expr mod | Menin-MLL FL inh | D2 ag | Sfp PPTase inh | ClpP mod | gsp ag
CS(=O)(=O)N1CCN(Cc2cc(=O)n3ccsc3n2)CC1 | -11% | 0.0% | -1.3 | -2.4 | -2% | 1.0% | 0%[15.4 µM]
CCCOc1ccc(C(F)(F)F)cc1NC(=O)CN1C(=O)C(=O)N(CC)C1=O | -6% | -0.3% | . | -3.1 | . | 3.5% | 0%
Cc1nc2ccccc2cc1C(=O)NCc1ccco1 | -3% | -1.7% | -0.8 | 1.0 | -12% | -3.2% | 0%
O=C(O)c1cccc2c1-c1ccccc1/C2=N\Nc1ccccc1 | ? | 2.5% | ? | -1.4 | 13µM* | . | -35%[inhibitor]
O=C(Nc1ccc2oc(=O)ccc2c1)c1ccccc1[N+](=O)[O-] | -3% | -1.9% | -4.3 | 0.6 | 2% | -2.3% | 0%
O=C(Cc1coc2ccc3ccccc3c12)N1CCCC1 | -4% | 1.8% | 4.1 | 2.3 | 15% | -1.0% | ?
CC(C)OCCCNC(=O)c1cc(-c2cccs2)nc2ccccc12 | -27% | 5.1% | -5.4 | 8.3 | -2% | 3.2% | -5%
O=C(COC(=O)CNC(=O)c1sc2ccccc2c1Cl)Nc1c(Cl)cc(Cl)cc1Cl | 2% | 1.4% | 0.9 | -4.9 | -8% | 2.4% | 9%[15.4 µM]
CCOc1ccc(NC(=O)c2cccnc2SC)cc1 | . | -1.2% | -2.0 | 2.6 | 1% | . | -2%[15.4 µM]
Cc1ccc(SCCNC(=O)c2ccccc2F)cc1 | 7% | 0.2% | -3.0 | 2.2 | 4% | -1.6% | ?

Arranged by the number under D2 ag (rising): 3 of the compounds above.
Molecule	PINK1 expr mod	Menin-MLL FL inh	D2 ag	Sfp PPTase inh	gsp ag
CCCOc1ccc(C(F)(F)F)cc1NC(=O)CN1C(=O)C(=O)N(CC)C1=O	-0.3%	.	-3.1	.	0%
Cc1ccc(SCCNC(=O)c2ccccc2F)cc1	0.2%	-3.0	2.2	4%	?
O=C(Cc1coc2ccc3ccccc3c12)N1CCCC1	1.8%	4.1	2.3	15%	?

The list continues.
SMILES | gsp antag | PINK1 expr mod | Menin-MLL FL inh | D2 ag | Sfp PPTase inh | ClpP mod | gsp ag
CN(CCOc1cccc(C(F)(F)F)c1)Cc1ccccc1 | 5% | 8.5% | -1.3 | -6.7 | -26% | . | 22%[15.4 µM]
CC(=O)c1ccc(NC(=O)CSc2nnc(-c3ccoc3C)n2Cc2ccccc2)cc1 | -27% | 1.1% | 8.0 | -0.1 | 8% | 1.9% | -63%[inhibitor]
CC(C)OCCCn1c(=S)[nH]c2ncccc2c1=O | -1% | 0.8% | -1.9 | 1.3 | -10% | 1.0% | 7%[15.4 µM]
COC(=O)c1cc(S(=O)(=O)N2CCN(c3cc(C)ccc3C)CC2)c[nH]1 | -7% | 2.5% | 6.1 | -3.4 | 24% | 1.0% | ?
CC(=O)Nc1ccc(S(=O)(=O)N2CCCC2C(=O)Nc2ccc3c(c2)OCCO3)cc1 (configuration not stated) | -2% | 0.3% | 5.9 | -1.4 | 12% | . | 8%[15.4 µM]
N#C/C(=C\c1ccc(Oc2ccc(C(F)(F)F)cc2[N+](=O)[O-])cc1)c1nc2ccccc2[nH]1 | -8% | 9.0% | 2.3 | -0.5 | -2% | -8.7% | -36%[inhibitor]
CCOc1ccccc1N1CCN(CC(=O)Nc2nccs2)CC1 | . | 2.7% | . | 0.0 | . | 0.5% | -76%[inhibitor]
NC(=O)C1CCN(C(=O)c2cnn(-c3ccccc3)c2NC(=O)c2cccc(F)c2)CC1 | 8% | 3.0% | -3.0 | 2.0 | 10% | . | 1%
C/C=C(\C)CN1CCN(c2cc(C)ccc2C)CC1 | -3% | 8.0%[38.3 µM] | 2.9 | 2.6 | ? | 0.1% | ?
CCOC(=O)N1CCN(C(=O)/C(=C/c2ccc(OC)cc2)NC(=O)c2ccccc2)CC1 | 2% | -2.2% | 3.2 | -1.4 | 11% | -0.2% | 7%
Nn1c(SC/C=C/c2ccccc2)nnc1-c1ccccn1 | -21% | 11%[38.3 µM] | -3.9 | 1.2 | -23% | 0.8% | 5%
C/C(=N\NC(=O)c1ccccc1[N+](=O)[O-])c1ccc(Br)s1 | 2% | 1.0% | -2.1 | -3.9 | 17% | . | -6%[15.4 µM]

Source: PubChem BioAssay

Compounds as they come. About 5.1% of those tested had a hit in this group.
